# miR-21 reporter = raises the signal of a miR-21 reporter | HeLa miR-21 FLuc reporter, luciferase, 48 h | Potency, µM (series often up to 38.3 µM), inactives show at the top dose reporter change, positive = more light | 340,000 tested, under 10 active | AID 2288; active = well fitted rising curve with a large enough effect; inconclusive = small, poorly fitted or top-dose-only effect; inactive = no such curve, though single readings can be large or run the other way;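 further: % of control where 0% means no effect; miR-21 action dims this reporter so a rising signal means less miR-21 action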
#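 Using DMEM plus 10% FBS, HeLa miR-21-FLuc cells are incubated with test compounds (final up to about 40uM) for 48 hours; firefly luciferase signal is then imaged following reagent-mediated lysis.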
# GLA inh pH 4.5 = blocks human alpha-galactosidase A at pH 4.5 | P06280 | purified enzyme, 4-MU-alpha-Gal fluorescence, pH 4.5 | activity change, negative = inhibition, % at 105 µM | 230,000 tested, under 10 active; inconclusive = small, poorly fitted or top-dose-only inhibition, or a rising curve; inactive = flat fitted curve, though single readings scatter; no compound was filed as active;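 further: 0% = full activity with enzyme and -100% = basal without enzyme; dose as in the result columns while the protocol names 77 µM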
# Target sequence (P06280 whole entry, looked up): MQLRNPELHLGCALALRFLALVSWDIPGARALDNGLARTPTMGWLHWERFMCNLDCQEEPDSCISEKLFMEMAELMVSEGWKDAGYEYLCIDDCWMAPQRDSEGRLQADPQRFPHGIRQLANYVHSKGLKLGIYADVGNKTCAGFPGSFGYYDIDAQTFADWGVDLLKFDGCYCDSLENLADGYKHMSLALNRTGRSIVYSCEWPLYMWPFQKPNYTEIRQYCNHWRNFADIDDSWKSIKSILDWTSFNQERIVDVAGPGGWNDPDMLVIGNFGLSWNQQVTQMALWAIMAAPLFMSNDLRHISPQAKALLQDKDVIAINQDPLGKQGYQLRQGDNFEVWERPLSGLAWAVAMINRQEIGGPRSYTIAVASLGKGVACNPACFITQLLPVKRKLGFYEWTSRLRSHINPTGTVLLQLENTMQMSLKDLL
# Rango-impB inh = Rango-importin beta binding inhibition; 340,000 compounds, 0.031% hits; AID 540263; Potency, µM (series often up to 92.2 µM), without a hit: at the top dose inhibition of complex formation; Rango CFP/YFP FRET sensor + importin beta, 45 min; Q14974; active = rising FRET ratio curve, often small or poorly fitted; inconclusive = mostly compound fluorescence or quenching in the first reads; inactive = flat curves in all reads;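 further: potency means the concentration at half of the fitted maximal effect; 0% = DMSO wells and 100% = buffer wells lacking importin beta; nearly all actives have a fitted effect of over 15% in size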
#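 Inhibition scored from the CFP 486 nm/YFP 530 nm FRET ratio 45 min after adding 0.125 microM importin beta to 50 nM Rango biosensor preincubated 5 min with compound (room temperature, PBS with DTT, Tween-20, BSA). No-importin wells as positive control.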
# Rango dissoc inh = prevents RanGTP from dissociating the Rango-importin beta complex. O95149+P62826. 340,000 compounds, 0.071% hits. AID 540253. Potency, µM (top dose mostly 46.1 µM), without a hit: top-dose activity change, negative = inhibition. Biochemical FRET Rango-importin beta, RanGTP-induced dissociation; active means falling FRET ratio curve, often poorly fitted, with flat reads before Ran was added; inconclusive means other falling curves, or compound fluorescence or quenching; inactive means flat or rising ratio curve;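 further: potency means the concentration at half of the fitted maximal effect; % of control where 0% means no effect; nearly all actives have a fitted effect of over 45% in size; -100% = wells without RanGTP and RCC1; the record marks most hits as doubtful in a second field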
#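 Rango/importin beta premix (0.1/0.25 uM final), PBS + 1 mM DTT + 0.02% Tween-20 + 0.1% BSA; cpd 5 min RT; FRET pre-read; + RanGTP-RCC1 (0.6 uM Ran, 2 mM GTP, 0.2 uM RCC1); 45 min RT; FRET post-read, ex 430, em 486/530 nm.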
# Active calls of the source: *; ? = inconclusive; . = no result given; & = joins results of further samples. This is a subset (hit frequency here may not be typical).
canonical_smiles	miR-21 reporter	GLA inh pH 4.5	Rango-impB inh	Rango dissoc inh
CCCCn1c(N)c(N(CC(C)C)C(=O)CCCc2nc3ccccc3s2)c(=O)[nH]c1=O	.	.	-0.9%	-2.2%
Cc1ccc2[nH]nc(C(=O)N3CCCC(C(=O)c4ccc(Cl)cc4)C3)c2c1 (stereo not given)	5.0%	-22.1	-3.4%	0.7%
COc1ccc(OCC(O)CNC(=O)c2ccc(OC)cc2)cc1 (stereo not given)	-4.6%	4.4	-2.7%	0.1%
CCc1ccc2c(c1)C(c1ccc([N+](=O)[O-])cc1)=NNC(c1ccc(F)cc1)=N2	-53.1%	-1.7	?	11.6µM*
CC(C)=CCC/C(C)=C/CNC(=O)C[C@H]1C[C@H](C(=O)N2CCOCC2)[C@@]2(CCC3CCCC3)c3[nH]c4cc(-c5ccco5)ccc4c3CCN2C1=O	.	.	?	-14.2%
CCn1c(N)c(C(=O)NCc2cccnc2)sc1=S	-6.2%	-4.6	-1.9%	-0.5%
S=c1[nH]nc(-c2ccco2)n1/N=C/C(Cl)=C/c1ccccc1	-0.3%	-27.7	0.4%	-11.0%
CCC(NC(=O)CCCc1ccccc1)c1ccccc1 (stereo not given)	-9.8%	11.6	-1.2%	10.6%
CCOC(=O)[C@@H]1[C@H]2COc3ccccc3[C@H]2N2C(=O)N(c3ccc(F)cc3)C(=O)[C@]12C	-1.4%	.	4.2%	-5.6%
COc1cc(NC(=O)c2cccc3c2C(=O)N(Cc2cccnc2)C3)cc(OC)c1OC	-12.8%	-0.2	-3.1%	5.0%
Cc1ccc(/C(N)=N/OC(=O)c2cccs2)cc1	-57.8%	1.9	-0.5%	0.3%
COc1ccc(C(O)c2nccn2Cc2ccccc2)cc1 (stereo not given)	-10.0%	-3.9	-1.3%	0.1%
CS(=O)(=O)N1CCN(c2ccc(NC(=O)c3cc4ccccc4o3)cc2)CC1	-23.6%	.	-1.7%	-14.0%
CC1CCC2(CC1)NC(=O)N(CC(=O)N1CCN(S(=O)(=O)c3ccc4c(c3)CCC4)CC1)C2=O (stereo not given)	.	.	1.9%	2.6%
C=CCNC(=S)Nc1ccc(Br)cc1F	-22.0%	-6.2	-1.8%	16.4%
COc1cccc(-c2ccc(SCC(=O)N3CCN(c4ccccc4)CC3)nn2)c1	4.2%	-5.0	3.8%	-10.9%
Cc1cc(C(=O)C(=O)NC(C)C)c(C)n1-c1ccc([N+](=O)[O-])cc1	-7.8%	-7.8	-6.2%	13.7%
Cc1ccc(NC(=O)C2CCCN(c3ncccn3)C2)c(C)c1 (stereo not given)	-57.1%	.	0.9%	1.7%
Cc1cccnc1NC(=O)CSc1nnc(COc2ccc(C(C)C)cc2)n1C	-4.3%	-10.7	-0.7%	0.0%
CS(=O)(=O)N(CC(=O)N1CCCC1)c1cccc(F)c1	-1.1%	.	-1.9%	27.9%
CC(C)C(=O)Nc1ccc(C(=O)NNC(=O)C(c2ccccc2)c2ccccc2)cc1	-0.7%	-15.1	7.6%	23.1%
COc1ccccc1/C=C/C=N/n1c(COc2ccccc2)n[nH]c1=S	-14.0%	8.1	3.1%	-11.1%
CCc1cc2c(-n3nc(C)cc3C)ncnc2s1	-7.8%	3.3	8.2%	0.2%
COc1ccc(CCN2CCCn3c2nc2c3c(=O)n(Cc3ccccc3F)c(=O)n2C)cc1OC	-9.8%	-5.8	1.7%	-2.3%
COC(=O)[C@H](Cc1ccc(O)cc1)NC(=O)Cn1cnc(C(=O)Nc2ccc(C)c(C)c2)n1	.	.	-1.6%	-3.5%
O=C(O)CSCc1c(F)cccc1Cl	2.7%	-2.9	0.3%	10.1%
CCc1ccc(C(=O)NNC(=O)c2cccc(N3C(=O)CCC3=O)c2)cc1	.	.	-1.7%	-1.1%
O=C(NC(=S)Nc1cccc(NC(=O)c2ccccc2Cl)c1)c1cccs1	-8.9%	-4.7	0.2%	-8.2%
COc1ccc(CCNC(=O)C2CCN(S(=O)(=O)c3ccc4nc5c(c(C(=O)O)c4c3)CCCC5)CC2)cc1OC	-2.8%	.	-0.1%	-14.6%
O=C(Cc1ccc(-c2ccccc2)cc1)NCc1cccnc1	11.7%	-3.0	-1.6%	5.5%
O=C(COc1ccc(Cl)cc1Cl)NNC(=S)NC(=O)c1ccco1	-2.3%	-4.3	2.4%	-7.9%
COc1ccc(NC(=O)COc2ccc(N(C)S(=O)(=O)c3ccc(Cl)cc3)cc2)cc1	.	.	2.7%	0.8%
CCOC(=O)C1CCCN(C(=O)CCc2ccccc2)C1 (stereo not given)	-10.2%	2.4	2.3%	1.4%
CCOC(=O)C1CCN(C(=O)C2CCCN2S(=O)(=O)c2ccc(Cl)cc2)CC1 (stereo not given)	4.6%	.	0.2%	-0.1%
O=C(CSc1nnc(-c2ccco2)n1-c1ccccc1)NCc1ccc2c(c1)OCO2	9.0%	-5.9	?	15.5%
Cc1ccccc1OCCSc1nc(N(C)C)nc(N(C)C)n1	-0.5%	3.0	-3.7%	-3.3%
O=C(Cc1ccccc1)N1O[C@H]2C=C[C@@H]1CC2	.	.	-0.5%	0.3%
CCOC(=O)c1sc(NC(=O)CN2C(=O)c3cccc4cccc(c34)C2=O)nc1C	2.7%	-5.0	1.5%	-7.7%
Cn1cc(Cl)c(-c2n[nH]c(=S)n2C2CCCCC2)n1	-6.6%	1.3	-3.3%	10.9%
Cc1cc(C)cc(NC(=O)c2cccc(NC3=NC4CS(=O)(=O)CC4S3)c2)c1 (stereo not given)	-0.6%	.	0.4%	5.7%
O=C1CNCc2[nH]c3ccccc3c2N1c1ccccc1	-13.8%	0.6	?	0.3%
CC[C@]12c3[nH]c4ccccc4c3CCN1C(=O)C(CC(=O)NC/C=C(\C)CCC=C(C)C)C[C@@H]2C(=O)N1CCN(C(=O)C2CC2)CC1 (stereo not given in full)	.	.	0.4%	9.5%
CC1CCCC(C)N1CC(C)(C)NS(=O)(=O)c1ccc(Cl)cc1 (stereo not given)	-2.6%	-3.7	5.1%	0.8%
COc1ccc(C2C(C#N)=C(N)OC3=C2C(=O)CCC3)cc1OC (stereo not given)	2.1%	12.4	?	?
O=S(=O)(Cc1ccco1)Cc1nc(-c2ccc(Cl)cc2)cs1	-9.6%	0.0	-1.6%	4.9%
Cc1cc(=O)c2cc(C(=O)c3ccccc3)ccc2[nH]1	-17.8%	2.9	0.3%	8.6%
c1ccc(C2(CNc3ccccn3)CCCC2)cc1	-0.5%	-0.1	-5.4%	8.0%
Cc1nc(NC(=O)C2CC2)sc1C(=O)Nc1ccccc1Cl	-40.5%	.	-0.4%	-4.8%
COc1ccc(CCNC(=O)[C@@H]2C[C@H]2c2ccccc2)cc1OC	-10.5%	2.4	-1.4%	6.0%
O=C(NCc1ccco1)C1CC(c2ccc(Cl)c(Cl)c2)=NO1 (stereo not given)	0.0%	4.3	-1.4%	14.1%
CN(CC(=O)Nc1ccc(F)c(F)c1F)C(=O)c1ccc(N2CCCC2=O)cc1	.	.	5.4%	-9.0%
Cc1cc(C)c2c(N)c(S(=O)(=O)c3ccccc3)sc2n1	1.3%	-3.0	?	?
CCC(=O)Nc1cccc(NC(=O)c2cccc([N+](=O)[O-])c2)c1	-5.5%	-14.0	-0.5%	1.0%
COc1ccc(C(C(=O)NC2CCCCC2)N(C(=O)c2ccco2)c2ccccc2C(C)=O)cc1 (stereo not given)	2.8%	.	0.5%	-8.4%
CCc1cccc(CC)c1N(COC)C(=O)Cn1cnc2ccccc21	-4.6%	-1.9	-2.2%	17.5%
NC(=O)CN(C/C=C/c1ccccc1)C/C=C/c1ccccc1	-5.9%	.	-0.2%	19.1%
Cc1ccc(S(=O)(=O)N2[C@@H](c3ccc4c(c3)OCO4)C(C(=O)O)=C[C@H]2C(C)(C)C)cc1	.	.	-0.3%	-8.8%
COc1ccc(-c2nnc(SC(C)C(=O)Nc3ccc4c(c3)OCCO4)o2)cc1 (stereo not given)	-52.8%	-4.4	-0.3%	-6.0%
Cc1csc2c(C#N)c(=O)c3c(n12)CCC3	-3.4%	8.2	-4.5%	-0.4%
COC(=O)c1cc2c(C(F)(F)F)nn(C)c2s1	-0.7%	-22.8	1.6%	-10.4%

# New compounds follow.
canonical_smiles	miR-21 reporter	GLA inh pH 4.5	Rango-impB inh	Rango dissoc inh
CC(CNC(=O)CCC(=O)N1CCOc2ccccc21)c1ccccc1 (stereo not given)	-4.1%	.	0.5%	-7.7%
N=c1n(CCN2CCOCC2)c2ccccc2n1CC(=O)c1ccc(Cl)c(Cl)c1	4.6%	-0.4	5.5%	-7.3%
COc1cc([N+](=O)[O-])ccc1NC(=S)Nc1cccc(C(=O)O)c1	-10.1%	-6.7	-1.7%	0.7%
NC(=O)C1CCN(C(=O)CN(C2CCCCC2)S(=O)(=O)c2ccc(F)cc2)CC1	-1.3%	.	4.0%	-6.9%
COc1ccc(-c2cc(C(=O)N3CCCC3)no2)cc1	5.6%	.	3.5%	1.5%
CNC(=O)C1=C(C)NC(=S)NC1c1cccs1 (stereo not given)	-4.7%	9.8	-0.3%	20.7%
Cc1cc([N+](=O)[O-])ccc1N=Nc1c(N)[nH]n(-c2ccccc2)c1=O	3.4%	-6.3	-0.6%	1.6%
COc1ccc(C(=O)C2CCN(C(=S)Nc3ccc(F)cc3)CC2)cc1	7.5%	2.5	1.0%	9.1%
COc1ccccc1NC(=O)C(C)OC(=O)C1CC(=O)N(c2ccc3c(c2)OCCO3)C1 (stereo not given)	0.5%	.	-1.0%	1.3%
COCCNC(=O)CCC(=O)NNc1nc2ccccc2c2nc(C)nn12	-2.4%&0.6%	-6.1	1.5%	-2.7%
O=S(=O)(NCc1csc(-c2cccnc2)n1)c1cccs1	-3.7%	2.7	4.0%	14.8%
COC(=O)CCCC1=CC2=CC(=O)C(C)(OC(=O)c3cccs3)C(=O)C2=CN1CCc1ccccn1 (stereo not given)	3.1%	1.8&-11.0	?	-19.6%
O=C(NNc1nc(-c2ccccc2)cs1)c1ccc(F)cc1	28.8%	-1.5	-2.8%	15.3%
Cn1c(SCc2ccc(C(C)(C)C)cc2)nnc1C1COc2ccccc2O1 (stereo not given)	5.1%	-18.6	0.6%	18.1%
COc1ccc(/C=C2\CCCC(C(=O)C(F)(F)F)=C2O)cc1	-14.7%	-1.1	?	-18.0%
Cc1sc2ncnc(N3CCCCC3C)c2c1C (stereo not given)	-18.3%	-9.4	?	11.9%
CC(C)c1ccc(NC(=O)c2ccc3c(c2)C(=O)N(Cc2cccnc2)C3=O)cc1	3.6%	.	-1.8%	-19.7%
Cn1c(N)c(S(=O)(=O)N2CCCC2)c(=O)n(C)c1=O	-1.1%	.	0.0%	-4.3%
CSc1ncccc1C(=O)NC1CC(C)(C)Cc2c1cnn2-c1ccccc1C (stereo not given)	12.1%	.	6.5%	-19.5%
COc1ccc(N(CC(=O)N2CCc3ccccc3C2)S(C)(=O)=O)cc1Cl	1.6%	.	-2.0%	15.5%

# Brought forward from above: two entries, followed by the next part.
canonical_smiles	miR-21 reporter	GLA inh pH 4.5	Rango-impB inh	Rango dissoc inh
CSc1ncccc1C(=O)NC1CC(C)(C)Cc2c1cnn2-c1ccccc1C (stereo not given)	12.1%	.	6.5%	-19.5%
COc1ccc(N(CC(=O)N2CCc3ccccc3C2)S(C)(=O)=O)cc1Cl	1.6%	.	-2.0%	15.5%
CCn1nnc2cc(C(=O)Nc3cc(OC)cc(OC)c3)ccc21	.	.	0.8%	-4.3%
CCOCCOC(=O)COc1ccc(N2C(=O)c3ccccc3C2=O)cc1	-2.0%	3.3	.	.
CCOC(=O)c1ccc(N2C(=O)CC(SCC(N)C(=O)OCC)C2=O)cc1 (stereo not given)	-0.5%	0.8	1.1%	-17.6%
Cc1cc(C)nc(NS(=O)(=O)c2ccc(NC(=O)CCC3COc4ccccc4O3)cc2)n1 (stereo not given)	-4.8%	-9.4	1.2%	-6.1%

# From PubChem
